Screening results as filed in PubChem BioAssay.
TRPML1 inh – qHTS for Inhibitors of the Human Mucolipin Transient Receptor Potential 1 (TRPML1); 0.02% of 390,000 active; activity change, negative = inhibition, % (test concentration not listed); TRPML1-inducible cells, Ca2+ dye fluorescence, FDSS; hits give low values; inhibition of EC80 agonist-evoked calcium signal; Mucolipin-1 (Homo sapiens), Q9GZU1; in the data active means activity change below about -50%; inconclusive means about -30% to -50%; inactive means above about -30%;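 further: stimulus is agonist 54-4 at its EC80 concentration; on the % scale 0 is the no-effect control and ±100 the full control effect; compound concentration not given in the record; the text of the record puts the active cut at -80%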
Target sequence (Q9GZU1 whole entry, looked up): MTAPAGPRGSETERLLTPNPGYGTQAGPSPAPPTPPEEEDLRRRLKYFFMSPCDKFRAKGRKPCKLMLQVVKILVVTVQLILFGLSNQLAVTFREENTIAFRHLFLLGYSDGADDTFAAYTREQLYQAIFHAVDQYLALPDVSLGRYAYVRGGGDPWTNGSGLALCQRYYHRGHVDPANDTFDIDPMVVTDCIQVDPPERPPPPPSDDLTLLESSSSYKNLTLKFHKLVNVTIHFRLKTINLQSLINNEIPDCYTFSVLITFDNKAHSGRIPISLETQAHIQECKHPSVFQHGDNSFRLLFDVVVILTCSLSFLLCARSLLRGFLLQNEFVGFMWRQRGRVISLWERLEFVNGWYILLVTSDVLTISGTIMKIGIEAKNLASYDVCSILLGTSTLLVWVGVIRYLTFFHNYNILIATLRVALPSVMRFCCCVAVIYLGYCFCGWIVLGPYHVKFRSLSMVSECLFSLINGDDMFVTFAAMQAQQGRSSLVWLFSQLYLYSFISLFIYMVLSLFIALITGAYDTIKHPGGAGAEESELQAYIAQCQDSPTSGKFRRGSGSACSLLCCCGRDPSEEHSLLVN
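TRPML1-DL cells, Tet-induced overnight (~16 h, 37 °C) at 1,500 cells/well, were loaded with Ca8 no-wash dye plus quencher for 45-90 min at room temperature. Compounds were pinned during FDSS kinetic reading; agonist 54-4 at EC80 (4 uM final) then added.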
Menin MLL FP FL – qHTS Assay for Inhibitors Targeting the Menin-MLL Interaction in MLL Related Leukemias: Competition With Fluorescein Labeled MLL-derived Peptide; Fluorescence polarization, fluorescein-MLL peptide displacement from menin; FP activity change, % at 61.4 µM; 290,000 tested, under 10 active; AID 1766, 2009; inconclusive = falling polarisation curve, or a change in total fluorescence; inactive = total fluorescence flat and polarisation flat or rising; no compound was filed as active; the % refers to the polarisation; negative = inhibition;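 further: % of control where 0% means no effect; inhibitors lower the polarisation; unlabelled MLL peptide was the positive control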
ClpP mod – qHTS Assay for Activators of ClpP; AID 651965, 2013; purified B. subtilis ClpP, FRET peptide cleavage, 20 min; 1.9% of 340,000 active; Potency, µM (top dose mostly 57.5 µM), for inactives: at the highest dose activity change, negative = active; active = well fitted falling curve with a large enough effect; inconclusive = small, poorly fitted or top-dose-only effect; inactive = no such curve, though single readings can be large or run the other way; further: potency means the concentration at half of the fitted maximal effect; the source files actives as falling curves though it sought activators and does not explain the sign; nearly all actives have a fitted effect of over 65% in size; many hits overshoot -100%
Target sequence (P80244 whole entry, looked up): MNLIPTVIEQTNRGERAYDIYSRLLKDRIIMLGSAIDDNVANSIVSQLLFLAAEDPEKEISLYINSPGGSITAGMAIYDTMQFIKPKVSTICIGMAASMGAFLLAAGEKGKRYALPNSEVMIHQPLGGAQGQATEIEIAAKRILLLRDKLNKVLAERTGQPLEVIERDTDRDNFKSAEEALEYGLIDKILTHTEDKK
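ClpP 10 microg/mL final, pH 8 Tris/KCl buffer with BSA, glycerol, Tween-20; compound pinned in; FRET-FV substrate; RT 20 min; Ex320/Em430; ΔFRET vs ADEP 5.8 microM, DMSO, no enzyme.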
PINK1 expr mod – A Quantitative High throughput Screen to Identify Chemical Modulators of PINK1 Expression | PINK1 immunofluorescence, high-content cytometry, 24 h | Potency, µM (doses to about 76.6 µM), without a hit: top-dose activation (PINK1 increase), hits mostly activators | 0.2% of 410,000 active; active = well fitted activation curve with a large enough effect; inconclusive = small, poorly fitted or top-dose-only effect; inactive = flat fitted curve, though single readings scatter; cell line not stated here;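 further: potency means the concentration at half of the fitted maximal effect; % of control where 0% means no effect; nearly all actives have a fitted effect of over 65% in size; a mitochondrial uncoupler was the plate control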
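Stable cell line treated 24 h with compounds at 5 concentrations (CCCP controls), then fixed and immunostained for PINK1 plus nuclear and cell stains; PINK1 immunofluorescence quantified by laser-scanning microplate cytometry.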
TRPV1 potentiator – HTS Assay for Compounds that Act as Potentiators of the Vanilloid Receptor 1; TRPV1-expressing cells, Fluo-8 calcium influx, capsaicin EC20 potentiation; host cell line not named in the record; control for the full effect not named in the record; Transient receptor potential cation channel subfamily V member 1 (Homo sapiens), Q8NER1; AID 540277, 2011; potentiation, % at 8.33 µM; 0.02% of 320,000 active; active means potentiation above 80%; inconclusive means 30% to 80%; inactive means below 30%; further: 0% is about no effect
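TRPV1-expressing cells were cultured overnight at 35.5C and loaded with Fluo-8 calcium dye for 40 to 90 min at room temperature. After a 10 s baseline, compound was added and calcium influx was read kinetically for 3 min (ex 480/em 520 nm).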
Sfp inh – qHTS Assay for Inhibitors of Bacillus subtilis Sfp phosphopantetheinyl transferase (PPTase); 3.5% of 310,000 active; Potency, µM, inactives show max response, negative = inhibition, usual class: inhibitors; Biochemical Sfp PPTase activity, qHTS; AID 1490, 2009; active means well fitted inhibition curve with a large enough effect; inconclusive means small, poorly fitted or top-dose-only effect, or another doubt; inactive means no such curve, though single readings can be large or run the other way;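 further: the enzyme is Sfp with the accession as filed and its product quenches rhodamine fluorescence; potency means the concentration at half of the fitted maximal effect; 0% = enzyme reaction without inhibitor and -100% = no enzyme wells; top concentration of the series not given in the record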
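Buffer: 50 mM Hepes-Na pH 7.6, 10 mM MgCl2, 0.01% Nonidet P-40, 0.01% BSA. Enzyme 15 nM, pre-exposed to compound 15 min; substrates then added and fluorescence change tracked over 30 min.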
TRPML1 agonist – qHTS for Agonists of the Human Mucolipin Transient Receptor Potential 1 (TRPML1) | Mucolipin-1 (Homo sapiens), Q9GZU1 | TRPML1-expressing cells, Ca2+ dye fluorescence, FDSS; host cell line not named in the record; reference of the full effect not given here | activation, % (concentration not given with the values) | 0.12% of 410,000 active | AID 624414, 2012; in the data active = activation above about 50%; inconclusive = about 30% to 50%; inactive = below about 30%; further: 0% is about no effect; the text of the record puts the active cut at 80%
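Calcium fluorescence on an FDSS kinetic reader gave the read-out. Tet-induced TRPML1-DL cells were plated overnight, dye-loaded (Ca8 with quencher, 45-90 min, room temperature, dark), then read 110 s after compound addition, and again 110 s after 4uM final 54-4 (EC80).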
* marks the source's active call; other numbers are inactive results; ? = inconclusive; nt = not tested or not shown; [ ] = remark or other dose. Outcome played no part in choosing rows; about 4.4% have a hit in one of these screens.

SMILES	TRPML1 inh	Menin MLL FP FL	ClpP mod	PINK1 expr mod	TRPV1 potentiator	Sfp inh	TRPML1 agonist
CCn1c(SC(C)C)nnc1C1CCN(S(=O)(=O)c2ccc(OC)cc2)CC1	6	5.0	-1.3%	2.3%	4	8%	-0.8
O=C(Nc1cccc(C(F)(F)F)c1)c1cc2ncc(Br)cn2n1	-13	5.1	59%	2.5%[38.3 µM]	-10	-12%	2.5
CC1=NNC(=O)C1CCC(=O)N/N=C/c1ccc(C)cc1 (centres undefined)	16	0.5	nt	-2.4%	?	-22%	0.5
O=C([C@H](Cc1ccccc1)N1C(=O)c2ccccc2C1=O)N1CCOCC1	-9	2.1	nt	0.7%	-2	-11%	1.3
Cc1cc(NC(=O)Nc2ccccc2Cl)no1	9	0.9	2.0%	0.6%	-3	-3%	-0.6
CC(C)(C)c1ccc(OCCCN2CCCC2)cc1	33	-0.6	-4.2%	-0.1%	2	-13%	1.1
COc1ccc(NS(=O)(=O)c2csc(C(=O)N3CCCC3)c2)cc1	6	-0.5	-0.9%	0.9%	-2	10%	-1.1
COc1ccccc1N1CCN(S(=O)(=O)c2ccc(-c3cc(C(F)(F)F)on3)s2)CC1	23	nt	-0.1%	1.0%	nt	nt	0.0
CCOC(=O)c1c(N)c(C#N)c2n1CCCC2	3	1.1	32µM*	-0.7%	?	11%	-1.0
O=C(NC1CCCCC1)NC1CC2CCC(C1)N2C(=S)NCc1ccco1 (centres undefined)	1	1.3	0.7%	nt	-7	45µM*	-0.5
COc1ccc(NC(=O)CN2CCC3(O)CCCCC3C2c2cc(OC)ccc2OC)cc1 (centres undefined)	-9	1.5	0.4%	-1.0%	-10	0%	0.3
CCOc1ccccc1N1CCN(C(=O)c2cc3c(C)cc(C)cc3[nH]2)CC1	-8	5.6	nt	2.3%	2	-6%	0.3
Cn1c(COc2ccc([N+](=O)[O-])cc2)nnc1SCC(N)=O	23	-2.7	nt	-0.4%	-2	3%	-0.3
O=C(CN(C(=O)c1csnn1)c1ccc(F)c(Cl)c1)NC1CCCC1	3	-1.4	nt	0.1%	-2	5%	-0.4
Cc1cccc(NC(=S)N2CCC(NC(=O)c3ccco3)CC2)c1	12	-3.2	nt	0.1%	7	8%	-0.1
Cn1cccc1C(=O)N1CCC2(CC1)CCN(c1ccncc1)CC2	nt	-1.1	nt	0.3%	nt	22%	nt
COc1ccccc1-n1cnnc1SC(C)C(=O)Nc1ccc(NC(C)=O)cc1 (centres undefined)	3	-1.0	-0.1%	1.4%	3	17%	-0.8
O=C(COC(=O)C1CC2CCCC(C1)C2=O)NNC(=O)c1ccc([N+](=O)[O-])cc1 (centres undefined)	-12	nt	-0.4%	0.2%	13	nt	-0.3
CC(/C=N/n1c(-c2n[nH]c3c2CCC3)n[nH]c1=S)=C\c1ccco1	-19	16	nt	3.0%	4	45µM*	1.5
O=C(CN1C(=O)c2cccc3cccc1c23)NC1CCCC1	-24	1.4	nt	3.2%	8	9%	1.5
COC(=O)c1ccc(Cl)cc1NC(=O)Nc1nnc(N(C)Cc2ccccc2)s1	-7	nt	-15%	4.2%	nt	nt	1.5
O=S(=O)(c1ccc(NC(=S)NCc2ccncc2)cc1)N1CCCCC1	6	-2.1	nt	2.2%	-18	-3%	1.4
COCC(=O)n1cc(C(=O)OC)c2ccccc21	-5	3.0	0.9%	1.5%	14	-11%	-0.7
N#CCCN1CCCc2cc(N=Nc3ccc(C(F)(F)F)cc3)ccc21	-16	1.0	nt	15%	-5	8%	1.8
O=C(Nc1cccc(S(=O)(=O)NC2=NCCCCC2)c1)c1cccnc1Cl	-6	1.6	-0.8%	-1.0%	-10	5%	0.0
Cc1ccc(C)c(N2CCN(S(=O)(=O)c3c(C)noc3/C=C/N(C)C)CC2)c1	20	8.3	-1.3%	8.8%	-1	12%	-0.3
COc1ccc(/C=C2\CCc3ccccc3C2=O)cc1Cn1nc(C)cc1C	33	-2.7	0.2%	-0.5%	-3	20µM*	0.2
CN(C(=O)c1ccc(NC(=O)Cc2ccc(NC(=O)C3CCN(C(=O)C4CCC4)CC3)cc2)cc1)C1CCCC1	-9	nt	0.9%	0.9%	nt	nt	0.1
COc1cccc(CNc2nc3cc(-c4ccc(C(=O)N5CCN(C)CC5)cc4)sc3c(=O)n2C)c1	nt	nt	-18%	0.6%	nt	nt	-0.9
O=C(Nc1nc2n(n1)C(c1ccc(Cl)cc1)C=C(c1ccccc1)N2)c1ccco1 (centres undefined)	1	nt	4.9%	-0.9%	nt	nt	17
Cc1cccc(-n2nnnc2S(C)(=O)=O)c1	13	nt	0.4%	-0.3%	nt	nt	4.9
Cc1ccc(S(=O)(=O)/N=C2\C=C(NS(=O)(=O)c3ccc(C)cc3)C(=O)c3ccccc32)cc1	10	nt	5.0%	3.3%	nt	nt	-0.5
Cc1ccc(CNC(=O)c2ccc(NC(=O)C3=CSCCO3)cc2)cc1	-9	nt	1.9%	4.8%	9	29%	4.3
CC1(C(=O)NS(=O)(=O)C2CC2)CCN(C(=O)c2cc(F)cc(F)c2)C1 (centres undefined)	nt	nt	0.5%	0.8%	nt	nt	0.1
CCc1cc(=O)oc2cc(C)cc(OCC(=O)NC3CCN(Cc4ccccc4)CC3)c12	-18	1.9	4.1%	3.4%	3	8%	1.2
CC[C@@]1(C(=O)OC)N[C@H](CN(C)S(=O)(=O)c2ccccc2)[C@@H]2C(=O)N(Cc3ccccc3)C(=O)[C@@H]21	-7	nt	-1.6%	-0.4%	nt	nt	-0.4
COc1ccc(CCN(C)S(=O)(=O)c2ccc(Cl)nc2)cc1OC	-7	3.7	nt	-0.2%	1	0%	0.7
NC(=O)C1CCCN(C(=O)CCCNC(=O)c2ccc(Cl)cc2)C1 (centres undefined)	-14	nt	nt	-0.2%	-10	14%	-0.1
CCCC(=O)NCn1nnc(-c2ccc(Cl)cc2)n1	17	0.5	0.8%	-1.2%	-3	12%	0.4
COc1cc2[nH]c(=S)n(C3CCCC3)c(=O)c2cc1OC	-4	2.6	-0.6%	-1.1%[38.3 µM]	3	6%	-0.7

Arranged by value in TRPML1 inh (falling): three from the list above
compound	TRPML1 inh
Cc1ccc(C)c(N2CCN(S(=O)(=O)c3c(C)noc3/C=C/N(C)C)CC2)c1	20
Cc1ccc(S(=O)(=O)/N=C2\C=C(NS(=O)(=O)c3ccc(C)cc3)C(=O)c3ccccc32)cc1	10
COCC(=O)n1cc(C(=O)OC)c2ccccc21	-5

The listing continues.
SMILES	TRPML1 inh	Menin MLL FP FL	ClpP mod	PINK1 expr mod	TRPV1 potentiator	Sfp inh	TRPML1 agonist
Cc1ccc(SCC(=O)NN=C2CCN(C)CC2)cc1	-12	-1.2	nt	-2.2%	3	20%	-0.1
COc1cc2nc(NCCc3cccc(C)c3)n3nc(-c4ccccc4)nc3c2cc1OC	61	nt	-20%	-1.1%	nt	nt	-0.7
O=C(CSc1nc(=O)n(Cc2ccco2)c2c1CCC2)NCc1ccccc1	-5	nt	-0.5%	4.6%	nt	nt	-0.8
O=C(Nc1nccs1)c1ccc[nH]c1=O	-7	-4.4	-4.2%	-1.4%	-7	-1%	-0.6
Cc1nn2c(C)c(C(=O)NC(C)(C)C)cnc2c1-c1ccc(F)cc1	-5	nt	-13%	-0.3%	nt	nt	-0.3
CCCn1c(SCC(=O)N2CCc3ccccc32)n[nH]c1=O	11	nt	0.2%	0.5%	nt	nt	-0.7
Cc1ccccc1S(=O)(=O)N1[C@@H](c2ccc(F)cc2)C(C(=O)O)=CC[C@H]1c1ccc(Cl)cc1	-11	nt	1.5%	1.2%	24	nt	-0.1
C=CCN(C(=O)CCS(=O)(=O)c1cccc2nsnc12)c1ccccc1	14	-3.8	nt	-0.3%	-1	-15%	-0.7
COc1ccc(CNS(=O)(=O)NCc2ccc(C)cc2)cc1OC	4	-3.7	nt	3.1%	-15	12%	-0.7
Oc1c(C(c2ccccc2Cl)N2CCOCC2)sc2nc(-c3ccco3)nn12 (centres undefined)	3	nt	1.1%	-1.0%	nt	nt	15
CC(=O)NC(c1ccc2ccccc2c1)c1ccc2cccnc2c1O (centres undefined)	7	-0.8	nt	4.9%	9	-13%	1.5
COC(=O)/C(C#N)=C\c1c(OC)[nH]c2ccccc12	3	1.2	41%	7.1%	0	13%	-0.8
Cc1cc(OCCCCNC(C)C)cc(C(C)C)c1	-1	3.0	37%	10%	7	-24%	0.8
Cc1ccccc1NC(=O)c1ccc(CN2CCc3ccccc3C2)cc1	10	-0.2	5.0%	4.2%	-22	19%	2.2
O=C(NCc1ccncc1)C(=O)NCc1ccncc1	5	1.4	nt	1.7%	-1	13%	0.5
CCOc1ccc(S(=O)(=O)NCCC(=O)NCC(c2ccco2)N2CCCCC2)cc1 (centres undefined)	1	nt	-0.3%	-0.8%	3	nt	-0.4
Cc1ccc(S(=O)(=O)N(C)C)cc1NC(=O)C(C)OC(=O)c1cc[n+]([O-])cc1 (centres undefined)	10	nt	-0.2%	-1.3%	nt	nt	0.5
COc1ccccc1NC(=O)CN(c1ccccc1)S(=O)(=O)c1ccccc1	-2	-2.9	-1.6%	3.9%	-5	3%	-0.3
COc1ccc(CCNc2c([N+](=O)[O-])c(=O)oc3ccccc23)cc1OC	23	-0.9	1.5%	nt	-3	10%	0.7
COc1ccc(CC(=O)N2CCC(C)(C(=O)NS(=O)(=O)C3CC3)C2)cc1OC (centres undefined)	-3	nt	-2.8%	0.2%	nt	nt	-0.2
Fc1ccc(-c2cnc[nH]2)cc1	-13	1.0	-6.4%	-0.5%	5	13%	0.0
Cc1cc(C(=O)CSc2n[nH]c(N)n2)c(C)n1-c1cccc(F)c1	-2	0.6	-1.8%	-2.1%[38.3 µM]	11	-12%	1.3
COc1ccc(-c2ncccc2O)cc1	-3	7.0	25µM*	1.7%	9	7%	-0.7
